High-throughput results deposited in PubChem BioAssay by National Center for Advancing Translational Sciences (NCATS).
Cruzain inh noDet = cruzain (T. cruzi) inhibition without detergent; purified cruzain, Z-FR-AMC fluorescence, no detergent; Potency, µM, inactives show max response, negative = inhibition, actives largely listed as inhibitors; actives 2.3% (n = 200,000);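 note: plate controls were enzyme without inhibitor for no effect and buffer without enzyme for full effect; nearly all actives have a fitted effect of over 40% in size; top concentration of the series not given in the record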
Target sequence (P25779 123-467 limits assumed): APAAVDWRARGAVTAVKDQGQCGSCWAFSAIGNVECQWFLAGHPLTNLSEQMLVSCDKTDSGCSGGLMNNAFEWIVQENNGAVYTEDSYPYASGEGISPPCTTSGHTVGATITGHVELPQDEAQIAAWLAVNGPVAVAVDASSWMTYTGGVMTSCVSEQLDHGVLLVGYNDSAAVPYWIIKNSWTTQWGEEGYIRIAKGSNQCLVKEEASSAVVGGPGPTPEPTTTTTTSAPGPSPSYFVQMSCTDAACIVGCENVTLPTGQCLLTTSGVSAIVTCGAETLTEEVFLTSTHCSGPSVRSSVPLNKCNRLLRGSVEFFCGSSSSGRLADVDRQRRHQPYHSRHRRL
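Purified cruzain at 1.5 nM, pre-incubated 15 min with compound at room temperature in 100 mM sodium acetate pH 5.5, 5 mM DTT, 0.00005% Triton X-100. Reaction started with 2 uM Z-FR-AMC; AMC fluorescence increase over 60 s gives rate.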
MARV entry inh = blocks Marburg virus binding to or entry into cells. actives 1.8% (n = 300,000). Marburg virus pseudotyped entry inhibition, cell reporter; control for the full effect not named in the record; about a third of the inactives were read at about 46 µM. Potency, µM (highest dose often 37.8 µM), for inactives: top-dose activity change, negative = inhibition, usual class: inhibitors; active = well fitted inhibition curve with a large enough effect; inconclusive = small, poorly fitted or top-dose-only effect, or effect the other way; inactive = flat fitted curve, though single readings scatter; tested in HEK293 cells; about a fifth of its hits are not listed in these tables; note: % is set by controls: 0 for no effect and ±100 for the full control effect; luciferase read-out
NS1 function inh = blocks influenza NS1 protein function. actives 0.4% (n = 270,000). Potency, µM (series often up to 46.1 µM), without a hit: at the highest dose activity, positive = more growth. AID 2326. S. cerevisiae slowed by influenza A NS1, growth recovery by OD600; active means well fitted rising curve with a large enough effect; inconclusive means small, poorly fitted or top-dose-only effect; inactive means no such curve, though single readings can be large or run the other way; note: nearly all actives have a fitted effect of over 50% in size
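S. cerevisiae expressing influenza A NS1, grown in glucose, washed, then diluted 1:100 into pH 6.0 -URA galactose medium with 23 nl compound. Growth recovery read as OD600; NS1-free strain serves as control.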
Lassa entry inh = Lassa virus entry inhibition. Lassa virus pseudotype entry inhibition, cell reporter; control for the full effect not named in the record. Potency, µM (top dose mostly 37.9 µM), inactives show at the top dose activity change, negative = inhibition, usual class: inhibitors. actives 1.2% (n = 300,000); active means well fitted inhibition curve with a large enough effect; inconclusive means small, poorly fitted or top-dose-only effect, or effect the other way; inactive means flat fitted curve, though single readings scatter; tested in HEK293 cells; note: % is set by controls: 0 for no effect and ±100 for the full control effect; nearly all actives have a fitted effect of over 50% in size; luciferase read-out
Cruzain inh Det = cruzain (T. cruzi) inhibition with detergent; P25779; purified cruzain, Z-FR-AMC fluorescence, 0.01% Triton; Potency, µM, inactives show max response, negative = inhibition, usual class: inhibitors; actives 0.43% (n = 200,000); AID 1478;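 note: plate controls were neutral wells for no effect and buffer without enzyme for full effect; nearly all actives have a fitted effect of over 40% in size; top concentration of the series not given in the record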
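Sodium acetate buffer (100 mM, pH 5.5) containing 5 mM DTT and 0.01% Triton X-100 hosted 1.5 nM cruzain and test compound for 15 min at room temperature. Cleavage of 2 uM Z-FR-AMC was then tracked by fluorescence.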
SARS PLpro yeast = blocks SARS-CoV papain-like protease in a yeast assay; actives 0.19% (n = 330,000); S. cerevisiae expressing SARS-CoV PLpro, growth rescue; control for the full effect not named in the record; AID 485353; Potency, µM (highest dose often 32.9 µM), for the others: at the top dose activity, positive = growth rescue; active means well fitted rising curve with a large enough effect; inconclusive means small, poorly fitted or top-dose-only effect; inactive means no such curve, though single readings can be large or run the other way; note: 0% is about no effect; nearly all actives have a fitted effect of over 55% in size; growth read by luminescence after 48 h
RE007 growth inh = less growth of the S. pombe RE007 Vpr strain | S. pombe RE007 Vpr strain, BacTiter-Glo ATP luminescence, 24 h; control for the full effect not named in the record | Potency, µM (series often up to 92.2 µM), without a hit: at the top dose activity change, negative = less growth | actives 0.21% (n = 360,000) | AID 651644; active = well fitted falling curve with a large enough effect; inconclusive = small, poorly fitted or top-dose-only effect; inactive = no such curve, though single readings can be large or run the other way;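 note: % is set by controls: 0 for no effect and ±100 for the full control effect; nearly all actives have a fitted effect of over 50% in size; the assay follows cell death caused by Vpr and the record does not say whether a fall means rescue or toxicity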
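Fission yeast strain RE007, carrying one chromosomally integrated HIV-1 vpr copy, was seeded at OD 0.01 in PMG+AL medium with 23 nL pinned compound. After 24 h at 30 °C and 99% humidity, viability was read by BacTiter-Glo luminescence.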
StopGo reporter = lowers the luciferase signal of an FMDV 2A StopGo reporter; actives 1.2% (n = 410,000); Potency, µM (titrated, usually from 57.9 µM), inactives show at the highest dose signal change, negative = less light; human cells with a luciferase reporter of 2A StopGo recoding; control for the full effect not named in the record; active = well fitted falling curve with a large enough effect; inconclusive = small, poorly fitted or top-dose-only effect; inactive = no such curve, though single readings can be large or run the other way; tested in HEK293T cells; note: % is set by controls: 0 for no effect and ±100 for the full control effect; nearly all actives have a fitted effect of over 45% in size; luciferase light after 4 h
The depositor's hits bear a star; ? = inconclusive; . = not tested or not shown; & = joins results of further samples; [ ] = dose if it differs, or a comment. Unless noted, calls come from the whole dose curve; as a rule, active = well fitted curve in the direction sought with a large enough effect; inconclusive = small, poorly fitted or top-dose-only effect, or another doubt; inactive = no such curve, though single readings can be large; an effect the other way counts as inactive or inconclusive. Potency is the fitted concentration of half-maximal effect.

SMILES	Cruzain inh noDet	MARV entry inh	NS1 function inh	Lassa entry inh	Cruzain inh Det	SARS PLpro yeast	RE007 growth inh	StopGo reporter
O=C(c1cc(-c2ccncc2)nc2ccccc12)N1CCN(S(=O)(=O)/C=C/c2ccccc2)CC1	?	?	?	?	-11%	17%	-26%	0%
CN(C)c1ccc(CNC(=O)c2ccc3c(c2)N(C)C(=O)C2CCCCN32)cc1 (stereo unspecified)	4%	.	.	29%[46.1 µM]	-6.2%	.	.	5%
Cc1cc(CN2CCN(c3ccccc3F)CC2)cs1	-19%	.	.	10%[46.1 µM]	-1.7%	.	.	-13%
COc1ccc(/C(O)=C2/C(=O)C(=O)N(CCCN(C)C)C2c2cccnc2)cc1 (stereo unspecified)	-4%	-6%	-2%	.	-0.5%	1%	.	.
CC(C)Oc1cccc(C(=O)NC(=S)N2CCN(c3ccc(C(F)(F)F)cc3[N+](=O)[O-])CC2)c1	-20%	?	20%	?	-3.4%	2%	21%	-29%
Nc1ncncc1-c1ccc(Cl)cc1	.	-2%[46.1 µM]	1%	-2%[46.1 µM]	.	1%	7%	0%
Cc1cc(=O)oc2cc(OC(=O)c3ccco3)ccc12	.	.	-42%	.	.	6%	?	13%
COc1ccc(-c2noc(N3CCC(C(=O)N4CCN(c5ccccn5)CC4)CC3)n2)cc1	?	?	-48%	?	-4.5%	-12%	22%	13µM*
CC(C)(C)c1cc(C(=O)Nc2ccc(F)cc2)n(Cc2ccc(F)cc2)n1	.	.	-31%	.	.	-13%	-11%	?
CCOC(=O)Nc1cccc2ccccc12	-7%	7%	-4%	-11%	3.1%	5%	0%	-9%
CN1C(=O)C(CC(=O)NCCc2ccccc2)N(NC(=O)c2ccc(Cl)cc2)C1=S (stereo unspecified)	.	.	4%	.	.	0%	17%	-10%
CCN(Cc1ccccc1)S(=O)(=O)c1cc(C(=O)Nc2cc(Cl)cc(Cl)c2)ccc1F	?	.	.	?	1.8%	.	.	?
CCCc1nc(SCC(=O)N2CCN(c3ccccc3)CC2)c2c(=O)n(C)c(=O)n(C)c2n1	13%	.	.	.	-13%	-7%	1%	?
COc1ccc(Cl)cc1NC(=O)c1cccc([N+](=O)[O-])c1O	.	?	.	?	.	.	0%	0%
CCC(=O)Nc1ncc2c(n1)CC(c1ccco1)CC2=O (stereo unspecified)	-13%	1%	6%	18%	-2.1%	6%	4%	.
CCn1nc(-c2cccs2)nc2c(=O)n(C)c(=O)nc1-2	2µM*	0.89µM*	-204%	?	2.2µM*	-30%	?	1.6µM*
Cc1ccccc1-n1c(SCC(=O)c2cc(C)n(C)c2C)nnc1-c1cccnc1	?	?	16%	-25%	-4.5%	3%	0%	12%
CCCCCCCCCCCC1N=C(N)NC(CCCO)=C1C(=O)OC (stereo unspecified)	.	27%	.	8%	.	.	4%	?
COC(=O)c1ccc(N2CCN(CC(=O)c3ccc(-c4ccccc4)cc3)CC2)c([N+](=O)[O-])c1	?	23%	-59%	18%	-0.5%	-8%	-11%	21%
CCCCn1c(SCC(=O)c2ccc3c(c2)OCCO3)nnc1-c1ccco1	?	-22%	-18%	?	-6.3%	-8%	3%	3%
COC(=O)c1sccc1NC(=O)c1cccc(F)c1	.	5%[46.1 µM]	.	-17%[46.1 µM]	.	.	-15%	0%
Cc1ccc(S(=O)(=O)CNC(=O)c2ccccc2)cc1	2%	-10%[46.1 µM]	-2%	-2%	7.0%	4%	16%	-20%
Cc1ccc(NC(=O)c2c(C)noc2C)cc1	1%	12%	0%	6%	0.0%	-2%	-10%	6%
O=C(CC12CC3CC(CC(C3)C1)C2)N/N=C/c1ccncc1	-9%	-1%	-19%	-7%	-2.3%	-3%	1%	-17%
Cc1ccc(-n2ncc(C(=O)NCc3ccco3)c2C2CCN(C(=O)OC(C)(C)C)CC2)cc1	6%	.	.	?	-7.7%	.	.	5%
COCCn1c(Cc2ccccc2)nnc1SCC(=O)Nc1oc(C)c2c(C)n[nH]c(=O)c12	.	-27%	.	27%	.	-2%	-6%	-18%
CCOc1ccccc1NC(=O)c1cc(S(=O)(=O)NCc2ccco2)ccc1F	.	.	-3%	.	.	1%	0%	49%[activator]
Cc1ccc(CNC(=O)c2ccc([N+](=O)[O-])o2)cc1	3%	?	-148%	?	-0.7%	-36%	?	-11%
COn1c(-c2ccccc2)c(C=O)c2ccccc21	.	-4%	-90%	3%	.	-9%	83%	-5%
NNC(=O)C1CCCN1S(=O)(=O)c1ccc(Cl)cc1 (stereo unspecified)	.	-26%[46.1 µM]	-3%	-23%	.	1%	-14%	-10%
CC(C)OCCCn1c(=S)[nH]c2cc3c(cc2c1=O)OCO3	16%	15%	-2%	9%	-3.9%	-9%	3%	1%
O=C(CSc1ccc(-c2ccccn2)nn1)NC1CCCCC1	.	?	.	?	.	24%	-22%	7%
Cc1c(C(=O)OC2CCC(C)CC2)[nH]c2c1C(=O)CC(c1ccc(N(C)C)cc1)C2 (stereo unspecified)	-3%	18%[46.1 µM]	.	-13%[46.1 µM]	-0.7%	.	.	-17%
O=S(=O)(Nc1ccc2c(c1)CCC2)c1cccs1	-5%	-15%	-11%	9%	-2.7%	-4%	1%	57%[activator]
O=C(NC1CCCCC1)N1CCCC(c2nc(-c3ccc(S(=O)(=O)N4CCCC4)cc3)no2)C1 (stereo unspecified)	-5%	1%&-15%	-14%	-12%	-1.1%	1%	1%	?
S=C(NCCN1CCOCC1)Nc1ccc(Cl)c(Cl)c1	.	3%	0%	?	.	-5%	15%	12%
CCOC(=O)c1cnn(CC2CCCCC2)c1N	3%	?	2%	?	-6.1%	-13%	10%	16%
O=C1CCCc2ccccc2N1Cc1cccc(Cl)c1	3%	-22%	-12%	-24%	4.3%	-4%	-9%	?
CC(=O)Nc1sc2c(c1C#N)CCC(C)C2 (stereo unspecified)	.	1%[46.1 µM]	-5%	2%	.	-2%	-14%	9%
O=C(Cc1ccc([N+](=O)[O-])cc1)c1ccccc1	.	11%	.	?	.	.	1%	16%
Cc1cc(C)cc(NC(=O)Nc2cccnc2)c1	.	4%[46.1 µM]	1%	0%[46.1 µM]	.	-4%	7%	8%
CN(CC(=O)Nc1cccc2c1CCCC2)S(=O)(=O)c1ccccc1	3%	11%	16%	?	-0.8%	0%	-5%	13%
Nn1c(SCC(=O)Nc2ccc3c(c2)OCO3)nnc1-c1ccncc1	-7%	18%	4%	17%	3.9%	.	3%	-7%
COC(=O)c1ccc(CSc2nnnn2-c2ccccc2)o1	2%	-6%	-10%	-22%	2.7%	2%	-6%	-19%
Cc1ccccc1C(=O)Nc1cccc(-c2nnc(SCC(=O)O)n2C)c1	-14%	-17%	?	-11%	4.0%	0%	17%	-3%
CCOC(=O)C(Cc1ccc(O)cc1)NC(=O)CNC(=O)C(CC(C)C)NC(=O)OC(C)(C)C (stereo unspecified)	10µM*	33%	-2%	5%	13µM*	22%	-8%	-18%
CC(NC(=O)Oc1ccccc1)C(c1cccs1)N1CCOCC1 (stereo unspecified)	9%	-11%	5%	9%	0.0%	16%	-1%	.
Cc1ccc(C(=O)N2CCC(C(N)=O)CC2)cc1NC(=O)c1nsc2ccccc12	4%	.	.	-8%[46.1 µM]	1.2%	.	.	-2%
Clc1ccc2c(SCC3CO3)c3ccccc3nc2c1 (stereo unspecified)	.	?	.	20µM*	.	.	1µM*	?
Cn1cccc1/C=N/NC(=O)Cn1cnc2ccccc21	2%	-7%	15%	17%	2.1%	-8%	22%	0%

The list goes on.
SMILES	Cruzain inh noDet	MARV entry inh	NS1 function inh	Lassa entry inh	Cruzain inh Det	SARS PLpro yeast	RE007 growth inh	StopGo reporter
CC(C)c1ccc(N2C(=O)C3C4C=CC(CC4)C3C2=O)cc1 (stereo unspecified)	.	.	2%	.	.	-4%	0%	15%
COc1cccc(CNC(=O)Cn2c(=O)n3nc(-c4cccc(C)c4)nc3c3ccccc32)c1	-2%	.	.	26%[46.1 µM]	-1.1%	.	.	15%
O=C(Nc1cccc(-c2ccc(F)cc2)c1)C1CCCN(C(=O)c2cscn2)C1 (stereo unspecified)	.	.	0%	.	.	1%	3%	-16%
CCc1ccc(NC(=O)Cn2c(=O)n(CCc3ccccc3)c(=O)c3sc4ccccc4c32)cc1	-9%	-26%[46.1 µM]	.	9%[46.1 µM]	-0.3%	.	.	11%
C#CCSc1nc(C)cc(C(=O)OCC)c1C#N	.	.	-49%	.	.	-2%	-9%	16%
CCCNC(=O)CNC(=S)N(Cc1cc(OC)c(OC)c(OC)c1)C1CCCC1	?	?	0%	1%	-0.2%	4%	-2%	-5%
Cc1cccc(CNC(=O)CN2CC(C)Sc3ccccc32)c1 (stereo unspecified)	-2%	.	.	6%[46.1 µM]	-1.7%	.	.	14%
Cc1c(C(=O)N2CCN(S(C)(=O)=O)CC2)oc2ccccc12	-9%	11%	8%	-16%	4.5%	-1%	-8%	3%
CC[n+]1c(SC)ccc2cc(OC)ccc21	-7%	?	0%	9%	-5.6%	2%	-8%	0%
COc1ccc(C2=NN(CC(=O)Nc3ccccc3C)C(=O)CC2)cc1	.	-31%[46.1 µM]	-4%	-18%	.	-3%	-12%	13%
CC(C)CNC(=S)N1CCN(C(c2ccccc2)c2ccccc2)CC1	14%	?	-13%	?	-2.9%	-8%	3%	-24%
CC1CN(c2ccc(C(=O)c3ccccc3C(=O)O)cc2[N+](=O)[O-])CC(C)O1 (stereo unspecified)	.	.	8%	.	.	1%	5%	20%
COc1ccc(N2CCN(CC(O)COc3ccccc3C(C)(C)C)CC2)cc1 (stereo unspecified)	-3%	?	.	-28%[46.1 µM]	-6.8%	.	.	?
COc1ccc(NC(=O)CC2C(=O)N(Cc3ccccc3)C(=S)N2CCN2CCOCC2)cc1 (stereo unspecified)	.	-28%	.	-6%	.	2%	?	9%
